# AF4-AF9 inh: blocks AF4 peptide binding to human AF9; inhibition, % at 10 µM; P42568; AID 651704; 0.47% of 350,000 active; AlphaScreen, biotin-AF4 peptide binding to FLAG-AF9;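 active = every replicate reaching a set inhibition limit, whatever the replicate mean, cut at about 25% in these data; inconclusive = mean inhibition reaches that limit but some replicates miss it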;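 also: 0% = plate neutral control median and 100% = total signal loss; the record names both 10 and 1 µM as test concentration; the first replicate is given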
# HNF4A DNA FP: change in binding of human HNF4 alpha to DNA | P41235 | HNF4a-FITC DNA binding, fluorescence polarization, 1 h | activity change, % at 10 µM | 0.3% of 360,000 active; in the data active = activity change above about 30%, passing the limit was not always enough;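 also: controls were the assay level and a saturating level of protein; the project sought stronger binding though the title names inhibitors; some compounds called inactive have numbers as strong as hits; positive values seem to mean higher polarization but the record does not say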
# Target sequence (P41235 whole entry, looked up): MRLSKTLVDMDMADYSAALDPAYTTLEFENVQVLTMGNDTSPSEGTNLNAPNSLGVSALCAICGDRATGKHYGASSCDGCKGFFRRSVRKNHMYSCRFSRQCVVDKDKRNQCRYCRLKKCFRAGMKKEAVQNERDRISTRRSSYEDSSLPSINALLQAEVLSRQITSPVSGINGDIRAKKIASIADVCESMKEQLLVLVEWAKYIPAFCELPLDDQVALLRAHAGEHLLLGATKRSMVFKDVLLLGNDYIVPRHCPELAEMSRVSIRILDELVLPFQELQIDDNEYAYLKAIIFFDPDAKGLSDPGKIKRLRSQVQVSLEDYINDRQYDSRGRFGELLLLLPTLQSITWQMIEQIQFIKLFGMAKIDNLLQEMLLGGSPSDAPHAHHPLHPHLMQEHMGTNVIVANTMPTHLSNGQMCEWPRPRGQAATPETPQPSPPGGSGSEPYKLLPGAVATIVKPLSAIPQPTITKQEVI
# Vif A3G: inhibitors of Vif binding to APOBEC3G peptide, primary screen, biochemical, TR-FRET, GST-Vif 1-94, biotin-A3G peptide, dose response retest (AID 1117319); TR-FRET GST-Vif / biotin-A3G peptide binding; higher % means a stronger effect; test concentration not given here; strong numbers were not always called active; inhibition, %; hits with a dose series show IC50 in µM; 0.57% of 260,000 active;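 active = above the screen mean plus three standard deviations and confirmed in dose response; inconclusive = results disagree or hit not tested in dose response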;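 also: Vif residues 1-94 fused to GST binding biotinylated APOBEC3G peptide 110-148; 0% = full assay without inhibitor and 100% = GST in place of GST-Vif; retest series ran down from 100 µM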
# Ecoli growth: E. coli growth inhibition; Escherichia coli growth, OD600, 23 h; hits give low values; OD600 absorbance (test concentration not listed); 0.21% of 330,000 active; AID 1053175;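 active = OD600 absorbance below the run mean of sample wells minus 3.6 SD, in any replicate, cut at about 0.56 in these data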;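 also: stock transfer was 300 nL into about 60 µL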
# FGF22 binding: binders of recombinant human FGF22 by thermal shift; SYPRO orange fluorescence; percent of sucrose octasulfate shift, DMSO zero; 1.5% of 340,000 active; calls only at 9.99 µM; Q9HCT0;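 active = melting point raised past a set limit in the mean and every replicate; inconclusive = no clear call; three in four hits are not shown here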
# Target sequence (Q9HCT0 whole entry, looked up): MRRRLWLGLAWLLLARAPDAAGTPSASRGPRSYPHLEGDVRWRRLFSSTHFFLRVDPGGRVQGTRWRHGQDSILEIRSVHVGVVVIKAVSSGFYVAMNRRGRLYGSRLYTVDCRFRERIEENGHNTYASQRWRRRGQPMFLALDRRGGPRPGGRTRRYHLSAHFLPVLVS
# rRNA inh HTS: inhibitors of bacterial rRNA selective over humanized ribosomes. E. coli WT GFP vs humanized-ribosome RFP mutants, fluorescence, 24 h; hits give low values; DMSO median 0, no signal -100. AID 720706. 1.6% of 350,000 active. GFP signal change (wild-type ribosome), % (concentration not given with the values);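 active = significant combined selectivity score with lowered wild-type GFP, culture density cut under 30%, mutant RFP and density less affected; inactive = any of these conditions unmet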; also: one replicate is shown; some compounds called inactive have numbers as strong as hits
# ALR H2O2 inh: human ALR oxidase inhibition via reduced H2O2; P55789; purified ALR, DTT oxidation, H2O2 HRP-luminol luminescence; inhibition, % (test concentration not listed); 3.8% of 290,000 active;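 active = mean and each replicate at 75% or more; inconclusive = only one of the two met; inactive = neither met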;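 also: stock transfer was 7.5 nL into about 7.5 µL; 0% = neutral wells and 100% = wells with inactivated enzyme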
# Target sequence (P55789 whole entry, looked up): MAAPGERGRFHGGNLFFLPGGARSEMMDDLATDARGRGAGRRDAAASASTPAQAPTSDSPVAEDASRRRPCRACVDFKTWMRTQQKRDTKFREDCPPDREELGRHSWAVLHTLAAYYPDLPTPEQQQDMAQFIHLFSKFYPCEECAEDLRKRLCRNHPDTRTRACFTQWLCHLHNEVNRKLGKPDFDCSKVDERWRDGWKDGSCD
# rRNA inh HTS OD600: further read-out of rRNA inh HTS, marked with its call; OD600 change, %; measured here: OD600 growth;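 optical density of the mix in the first replicate; 0 = DMSO median and -100 = no signal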
# rRNA inh HTS RFP: also measured in rRNA inh HTS; calls as there; RFP signal change, %; measured here: RFP humanized mutant strains;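 first replicate; 0 = DMSO median and -100 = no signal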
# Numbers without * were called inactive; i = inactive; ? = inconclusive; / = no result given; & = joins results of further samples. Only part of the results is shown; rates above refer to the full screens.
# The line under a structure holds: AF4-AF9 inh	HNF4A DNA FP	Vif A3G	Ecoli growth	FGF22 binding	rRNA inh HTS	rRNA inh HTS OD600	rRNA inh HTS RFP	ALR H2O2 inh
C[C@@H]1CCCCO[C@H](CN(C)Cc2ccncc2)[C@@H](C)CN([C@@H](C)CO)C(=O)c2cc(NC(=O)CCC(F)(F)F)ccc2O1
  -4.4	/	/	/	i	3	3	2.2	/
C=CCNC(=S)NNC(=O)c1ccco1
  0.5	4.1	3%	0.7	/	15	9	-0.5	12
Cc1ccc(S(=O)(=O)N[C@@H]2CC[C@H](CC(=O)N3CCC(Cc4ccccc4)CC3)O[C@@H]2CO)cc1
  1.7	/	/	/	i	-5	-41	36	/
Cn1nc(CC(=O)Nc2cccc3ncccc23)c2ccccc2c1=O
  /	0.5	3%	0.77	/	/	/	/	-21
Cc1ccc(NC(=O)c2cc(C)n(-c3cccc(C)c3)c2C)cc1
  /	-0.9	2%	0.72	/	/	/	/	3
CCCOc1ccc(CSc2nnc(CCC)n2N)cc1
  /	0.5	5%	0.7	/	/	/	/	4
O=[N+]([O-])c1ccc(S(=O)(=O)N2CCSC2c2ccco2)cc1 (centres undefined)
  /	-5.9	?	0.68	i	5	16	6.7	-11
C[C@H](CO)N1C[C@H](C)[C@@H](CN(C)C(=O)Nc2ccccc2)Oc2ccc(NC(=O)C3CC3)cc2C1=O
  -0.3&2.6	-3.7	/	/	i	1&6	5&6	-2.5&-1.3	-2
CCc1ccccc1NC(=O)CN(C)C(=O)CSc1nn(-c2ccc(F)cc2)c(=S)s1
  -46	-1.4	12%	0.71	i	-3	-5	-5.2	-8
O=C(NC1CCCC1)N[C@@H]1C=C[C@@H](CC(=O)N2CCOCC2)O[C@@H]1CO
  1.5&-3.1	-1.0	/	/	i	4&6	-3&14	-1.6&2.3	/

# Later entries
# The line under a structure holds: AF4-AF9 inh	HNF4A DNA FP	Vif A3G	Ecoli growth	FGF22 binding	rRNA inh HTS	rRNA inh HTS OD600	rRNA inh HTS RFP	ALR H2O2 inh
O=C(Nc1ccc(S(=O)(=O)NCc2ccco2)cc1)c1ccncc1
  /	-1.3	3%	0.75	/	/	/	/	-7
O=C(O)CSc1nnc(SCc2cccc3ccccc23)s1
  /	-3.6	4%	0.71	/	/	/	/	98*
N#Cc1ccc(CSc2nc(N)cc(=O)[nH]2)cc1
  -0.4	3.9	/	0.67	i	15	11	5.1	/
O=C(CN1C(=O)CSc2ccc(S(=O)(=O)N3CCOCC3)cc21)NCCCN1CCc2ccccc2C1
  3.0	-8.5	5%	0.72	i	4	0	-11	2
CN1C(=O)CC(N2CCN(CCN=CC3=C(O)CC(C)(C)CC3=O)CC2)C1=O (centres undefined)
  /	-3.5	9%	0.7	/	/	/	/	-30
C=CCN1C2CCCC1CC(NC(=O)Nc1cccc(C(C)=O)c1)C2 (centres undefined)
  /	-3.5	2%	0.73	/	/	/	/	-8
Cc1ccc(NC(=O)CN2CCc3ccccc3C2)cc1
  /	1.7	3%	0.66	/	/	/	/	-16
CCc1c(C)sc2nc(C(C)C)nc(SCC(=O)N3CCc4ccccc4C3)c12
  0.1	/	-4%	0.73	i	-17	-15	9.1	2
Cc1ccc(O)c(NC(=O)c2noc(C(C)C)c2[N+](=O)[O-])c1
  4.9	-2.0	6%	0.69	i	-16	-30	0.0	/
CC(C)=C1SC(N2CCN(c3cccc(C)c3)CC2)=NC1=O
  0.7	-5.4	4%	0.65	i	-5	-5	-3.3	5

# For convenience, 11 of the compounds above:
# The line under a structure holds: AF4-AF9 inh	HNF4A DNA FP	Vif A3G	Ecoli growth	FGF22 binding	rRNA inh HTS	rRNA inh HTS OD600	rRNA inh HTS RFP	ALR H2O2 inh
O=[N+]([O-])c1ccc(S(=O)(=O)N2CCSC2c2ccco2)cc1 (centres undefined)
  /	-5.9	?	0.68	i	5	16	6.7	-11
C[C@H](CO)N1C[C@H](C)[C@@H](CN(C)C(=O)Nc2ccccc2)Oc2ccc(NC(=O)C3CC3)cc2C1=O
  -0.3&2.6	-3.7	/	/	i	1&6	5&6	-2.5&-1.3	-2
CCc1ccccc1NC(=O)CN(C)C(=O)CSc1nn(-c2ccc(F)cc2)c(=S)s1
  -46	-1.4	12%	0.71	i	-3	-5	-5.2	-8
O=C(NC1CCCC1)N[C@@H]1C=C[C@@H](CC(=O)N2CCOCC2)O[C@@H]1CO
  1.5&-3.1	-1.0	/	/	i	4&6	-3&14	-1.6&2.3	/
O=C(Nc1ccc(S(=O)(=O)NCc2ccco2)cc1)c1ccncc1
  /	-1.3	3%	0.75	/	/	/	/	-7
O=C(O)CSc1nnc(SCc2cccc3ccccc23)s1
  /	-3.6	4%	0.71	/	/	/	/	98*
N#Cc1ccc(CSc2nc(N)cc(=O)[nH]2)cc1
  -0.4	3.9	/	0.67	i	15	11	5.1	/
O=C(CN1C(=O)CSc2ccc(S(=O)(=O)N3CCOCC3)cc21)NCCCN1CCc2ccccc2C1
  3.0	-8.5	5%	0.72	i	4	0	-11	2
CN1C(=O)CC(N2CCN(CCN=CC3=C(O)CC(C)(C)CC3=O)CC2)C1=O (centres undefined)
  /	-3.5	9%	0.7	/	/	/	/	-30
C=CCN1C2CCCC1CC(NC(=O)Nc1cccc(C(C)=O)c1)C2 (centres undefined)
  /	-3.5	2%	0.73	/	/	/	/	-8
Cc1ccc(NC(=O)CN2CCc3ccccc3C2)cc1
  /	1.7	3%	0.66	/	/	/	/	-16

# Additional entries
# The line under a structure holds: AF4-AF9 inh	HNF4A DNA FP	Vif A3G	Ecoli growth	FGF22 binding	rRNA inh HTS	rRNA inh HTS OD600	rRNA inh HTS RFP	ALR H2O2 inh
CCOC(=O)C1CCCCN1Cc1ccc(F)c(Br)c1 (centres undefined)
  /	-1.0	2%	0.7	/	/	/	/	/
C[C@H](CO)N1C[C@H](C)[C@@H](CN(C)C(=O)Nc2cccc3ccccc23)Oc2ccc(NC(=O)CCN3CCOCC3)cc2CC1=O
  1.0	/	/	/	i	-4	-3	0.0	/
Cc1ccc(NC(=O)c2ccc(NC(=O)C3CCCCC3C(=O)O)cc2)cc1 (centres undefined)
  -1.8	0.9	4%	0.73	i	-9	-3	0.6	-1
Oc1ccccc1-c1nc(NCc2cccnc2)c2ccccc2n1
  5.3	3.0	-368%	0.67	i	10	2	6.6	-2
O=C(c1cccc(F)c1)N1CCCCN2[C@H](C1)[C@H](c1ccc(-c3cncnc3)cc1)[C@@H]2CO
  0.9	/	/	/	i	3	6	1.5	/
CCCCCC1CCC(c2ccc(/C(N)=N/O)cc2)CC1 (centres undefined)
  -1.6	0.1	-3%	0.67	i	/	/	/	-14
CN(C)C(CNC(=O)CCNS(=O)(=O)c1ccccc1C(F)(F)F)c1ccccc1 (centres undefined)
  -6.4	2.3	-12%	0.6	i	2	6	-1.4	-3
COc1ccc2cc(CN(Cc3ccco3)C(c3nnnn3C3CCCCC3)C(C)C)c(=O)[nH]c2c1 (centres undefined)
  /	-4.7	12%&6%	0.79	/	/	/	/	4
COc1ccc(OC)c(S(=O)(=O)Nc2ccc3c(c2)n(C)c(=O)n3C)c1
  -0.6	3.8	/	0.7	i	-4	-9	-2.3	/
O=C(C[C@@H]1CC[C@@H]2[C@H](COC[C@@H](O)CN2C(=O)Nc2ccccc2)O1)NCCCN1CCOCC1
  -1.5	/	/	/	i	3	9	0.1	/

# Other structures
# The line under a structure holds: AF4-AF9 inh	HNF4A DNA FP	Vif A3G	Ecoli growth	FGF22 binding	rRNA inh HTS	rRNA inh HTS OD600	rRNA inh HTS RFP	ALR H2O2 inh
CSCCC(NC(=O)c1ccccc1)C(=O)NCCCSc1ccccc1 (centres undefined)
  1.0	-0.8	-3%	0.67	i	-23*	-15*	-0.9*	-5
CNC[C@@H]1Oc2ccc(NC(=O)Nc3ccccc3)cc2CC(=O)N([C@@H](C)CO)C[C@@H]1C
  -1.2	/	/	/	i	4	10	-2.2	/
C[C@@H]1CN([C@H](C)CO)C(=O)c2cccc(NC(=O)Nc3ccc4c(c3)OCO4)c2O[C@@H]1CN(C)Cc1ccncc1
  1.3	/	/	/	i	-1	6	-3.9	/
COc1ccc(S(=O)(=O)N(CCc2ccccc2)CC(=O)O)cc1C
  /	1.0	-3%	0.74	/	/	/	/	5
Cc1ncoc1C(=O)N1CCCC(C(=O)c2ccc(-c3ccccc3)cc2)C1 (centres undefined)
  1.3	2.3	/	0.69	/	-37	-53	-7.4	-3
C[C@@H]1CCCCO[C@H](CN(C)C(=O)NC2CCCCC2)[C@H](C)CN([C@H](C)CO)C(=O)c2cc(NC(=O)c3ccncc3)ccc2O1
  -1.9	/	/	/	i	0	-10	1.3	/
O=C(O)C1c2ccccc2Cc2ccccc21
  -1.0	2.1	0%	/	i	4	2	-3.1	/
C=CCNc1ncnc2c1cnn2-c1cccc(C)c1
  -3.3	-1.1	2%	0.75	i	-7	-3	-0.7	-3
C=C(C)c1cccc(C(C)(C)NC(=O)Nc2ccc(C(N)=O)cc2)c1
  0.7	2.4	5%	0.66	i	1	-8	-2.1	-8
CC(=O)Nc1cc[n+](CC(=O)c2ccc(Cl)cc2)cc1
  -3.8	1.3	15%	0.68	i	17	10	6.1	29

# (next part)
# The line under a structure holds: AF4-AF9 inh	HNF4A DNA FP	Vif A3G	Ecoli growth	FGF22 binding	rRNA inh HTS	rRNA inh HTS OD600	rRNA inh HTS RFP	ALR H2O2 inh
CC(=O)c1ccccc1NC(=O)c1ccc(N2CCCC2=O)cc1
  2.4	3.3	-3%	0.66	i	0	2	1.4	-29
CCc1ccc(/C=N/n2c(C)cc(C)c(C#N)c2=O)cc1
  -2.1	6.2	/	/	i	17	10	-4.0	-1
Cc1cccc(N2CC(C)Cn3c2nc2c3c(=O)[nH]c(=O)n2C)c1 (centres undefined)
  0.7	0.9	/	0.64	i	9	15	2.3	40
COc1ccccc1NC(=O)c1nnn(CC(=O)Nc2ccccc2)c1N
  /	0.2	-5%	0.72	/	/	/	/	-4
COc1ccc(-c2cc(-c3ccccc3O)[nH]n2)cc1
  /	-0.6	1%	0.69	/	/	/	/	69
C/C(CC(=O)NCc1ccccc1Cl)=N/NC(=O)c1ccccn1
  -1.1	0.9	/	/	i	5	4	2.7	/
Cc1nc(SCC(=O)O)c2oc3ccccc3c2n1
  /	-2.0	-1%	0.65	/	/	/	/	-12
O=C(NCC1CCCN1S(=O)(=O)c1cccs1)c1ccc([N+](=O)[O-])cc1 (centres undefined)
  5.9	0.7	-1%	0.66	i	-6	7	-3.8	-6
O=C(Nc1cccc(S(=O)(=O)N2CCOCC2)c1)c1ccc2ccccc2n1
  0.5	0.3	/	0.67	i	-17	-15	9.1	-1
O=C(CCn1cnc2ccccc2c1=O)Nc1cccc(Cl)c1Cl
  -2.7	-0.9	/	0.66	i	6	11	2.6	7

# Continuation:
# The line under a structure holds: AF4-AF9 inh	HNF4A DNA FP	Vif A3G	Ecoli growth	FGF22 binding	rRNA inh HTS	rRNA inh HTS OD600	rRNA inh HTS RFP	ALR H2O2 inh
COc1ccc(C(=O)COC(=O)CN2C(=O)C3C4CCC(C4)C3C2=O)cc1 (centres undefined)
  1.0	1.7	-3%	0.66	i	-4	-16	-3.0	/
O=C(O)c1cccc(-n2nnnc2SCc2ccccc2Cl)c1
  -3.1	0.1	4%	0.67	i	-28	-23	-4.6	0
N/C(=N\OC(=O)c1cc(Cl)ccc1Cl)c1ccncc1
  -1.6	-0.4	-7%	0.71	/	9	8	-2.2	0
C[C@@H]1CN([C@H](C)CO)C(=O)c2cccc(NS(=O)(=O)c3ccc(F)cc3)c2O[C@H]1CN(C)CC1CC1
  -2.1	/	/	/	i	1	3	-1.0	/
COc1ccc(C(=O)NCCc2c[nH]c3ccccc23)cc1[N+](=O)[O-]
  5.6	3.3	/	0.62	i	-7	-5	-2.2	4

# Assay outcomes deposited in PubChem by several laboratories.
